Screening data (PubChem BioAssay)
CDC25B-CDK2 inh = human CDC25B-CDK2/CyclinA binding inhibition; P30305+P24941; HTRF CDC25B-CDK2/CyclinA binding, anti-His/anti-Flag; stronger effect = higher value; z-score (test concentration not listed); 94,000 tested, 0.72% active; AID 1259370;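 note: score is relative to mean and SD of negative controls; strong numbers were not always called active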
TAR Tat displ = HIV-1 TAR-Tat binding disruption | 100,000 tested, 0.6% active | z-score (test concentration not listed) | HIV-1 TAR RNA, Tat peptide displacement FRET; stronger effect = higher value;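 note: score is relative to mean and SD of negative controls; some compounds called inactive have numbers as strong as hits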
* marks the source's active call; other numbers are inactive results; . = not tested or not shown.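 Rule for the calls: active = z-score from 3 up in half or more of its runs; inactive = the rest.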

SMILES	CDC25B-CDK2 inh	TAR Tat displ
Cc1ccc(C2Nc3cccc4cccc(c34)N2)s1	-1.8	.
CCc1ccc2occ(CC(=O)NCc3ccc4c(c3)OCO4)c2c1	-2	3.1
Nc1nnc(-c2ccc(F)cc2)s1	.	2.9
CCCNC(=C(C(=O)Nc1cccc(Cl)c1)C(=O)Nc1cccc(Cl)c1)c1ccc(OC)cc1	-1.9	.
Cn1nc(C(=O)NCc2cccs2)c2c1-c1ccccc1S(=O)(=O)C2	-1.9	0.58
Cn1cc(S(=O)(=O)c2ccccc2)c(=O)c2cc(F)c(N3CCOCC3)cc21	.	0.54
COc1ccc(C2CC(=O)C3=C(C2)NC(=O)CC3c2ccccc2OC)cc1 (stereo not drawn)	-1.4	0.46
O=C(CN1C(=O)c2ccc([N+](=O)[O-])cc2C1=O)Nc1ccc2ccccc2c1	6.7*	.
Cc1ccc(-c2noc(CN(C(C)C)S(=O)(=O)c3ccc(C)cc3)n2)cc1	-1.2	0.1
CC(C)n1c(Br)nc2c1c(=O)n(C)c(=O)n2C	0.17	.
CCOc1ccc(CNCCSc2nnnn2C)cc1OC	-1.3	-0.35
Cc1nc(N2C(=O)c3oc4ccccc4c(=O)c3C2c2ccc(Cl)cc2)sc1C (stereo not drawn)	-0.39	0.5
COCCCn1c(=O)[nH]c2ccccc2c1=O	-1.1	0.96
COc1ccc(Br)cc1CNC(=O)COc1nsnc1N1CCOCC1	.	0.87
CN(C)c1ccc(N2C(=O)CC(Sc3ncccc3C(=O)O)C2=O)cc1 (stereo not drawn)	-0.81	-0.72
Cc1cc(NCc2cccnc2)n2nc(C(F)(F)F)c(-c3ccc(F)cc3)c2n1	-0.49	-0.13
O=c1c([N+](=O)[O-])c(O)c2cccc3c2n1CCC3	-1.3	.
CCOC(=O)c1cnc(-c2cccs2)nc1Nc1cccc(C(F)(F)F)c1	-2.1	.
Cc1ccc(CNCc2cccn2-c2nnc(N3CCOCC3)s2)o1	.	3
Cc1ncc(-c2ccc(C)c(S(=O)(=O)Nc3ccc(F)c(Cl)c3)c2)o1	.	1.2
CNC(=O)c1c(NC(=O)CN2C(=O)CCC2=O)sc2c1CCC2	.	0.71
COc1ccc(Cl)cc1NC(=O)N1CCOc2ccccc21	.	2.3
O=C(CSc1c2c(nc3cc(Cl)ccc13)CCCC2)NCC1CCCO1 (stereo not drawn)	-2.4	.
O=C(Cn1ncn2nc(-c3ccco3)cc2c1=O)NCc1ccc(F)cc1	-3.6	-0.58
CCN1CCN(C(=O)C2CCC(CNc3c(N4CCC(C)CC4)c(=O)c3=O)CC2)CC1 (stereo not drawn)	-1.9	1.8

Remaining list, next part:
SMILES	CDC25B-CDK2 inh	TAR Tat displ
CCOc1ccc(C2/C(=C(\O)c3ccc(OC)cc3)C(=O)C(=O)N2Cc2cccnc2)cc1OC (stereo not drawn)	-2.8	1
C=CCN(Cc1nc(-c2ccc(OC)c(OC)c2)no1)S(=O)(=O)c1ccccc1	0.31	0.9
C=CCOc1ccc2c(C)c(CCCC)c(=O)oc2c1	-1	.
CCC(=O)N1CCc2cc(S(=O)(=O)CCC(=O)N3CCN(c4ccc(F)cc4)CC3)ccc21	-3	.
COC(=S)Nc1ccc(Cl)cc1C	0.28	.
CN1C(C(=O)Nc2ccccn2)=C(O)c2sccc2S1(=O)=O	.	1
Fc1ccc(-c2csc(-c3cccnc3)n2)cc1	-0.67	0.48
O=S(=O)(/N=C(\NNC(=S)NCc1ccco1)N1CCCC1)c1ccccc1	-0.69	.
COc1ncnc2c1sc1nc(N3CCOCC3)c3c(c12)CCCC3	-0.19	.
CCOC(=O)c1nnn(-c2nonc2N)c1CSc1ncccn1	-0.19	.
COC(=O)C1=C(C)NC2=C(C(=O)CC(C)(C)C2)C1c1cc(OC)c(OC)cc1Br (stereo not drawn)	0.68	0.82
CC1CC(C)(C)N(C(=O)NC2CCCCC2)c2ccccc21 (stereo not drawn)	-1.6	-0.14
CCN(CC)CCNC(=O)c1ccc(NS(C)(=O)=O)cc1	-1.2	.
COc1ccc(CNc2c(S(=O)(=O)c3ccc(Cl)cc3)cnc3ccc(OC)cc23)cc1	-0.71	0.62
Cc1cc(C)cc(NS(=O)(=O)c2ccc(-c3n[nH]c(C)c3C)s2)c1	.	-1.3
O=C(Cn1c(=O)n(Cc2ccco2)c(=O)c2sc3ccccc3c21)NC1CCCC1	0	1.5
CCc1ccccc1NS(=O)(=O)c1cc(-c2csc(C)n2)ccc1C	.	1.7
CC(C)CCNC(=O)CN1Cc2ccccc2C1=O	.	-0.54
Fc1ccc(-c2nnc3ccc(N4CCOCC4)nn23)cc1	-1.5	-0.23
Cc1nn(-c2ccc(F)cc2)c(-n2cccc2)c1C(=O)NC(C)C	.	0.9
COc1ccc(-c2noc(CSc3nnc(C)n3-c3ccc(C)c(C)c3)n2)c(OC)c1	-1.2	0.25
CCCn1c2ccccc2c2cnn(CC(=O)Nc3cc(C)on3)c(=O)c21	.	-0.05
CCOC(=O)c1sc(COc2ccc3nonc3c2)nc1C	-0.72	.
c1ccc(CN2CCC(N3CCC(N4CCc5ccccc5C4)CC3)CC2)cc1	0.41	-0.01
Cc1cc(Cl)ccc1OCc1nc(-c2ccc(S(=O)(=O)N3CCOCC3)cc2)no1	.	1.7

Random excerpt: three records from the list
SMILES	CDC25B-CDK2 inh	TAR Tat displ
CCC(=O)N1CCc2cc(S(=O)(=O)CCC(=O)N3CCN(c4ccc(F)cc4)CC3)ccc21	-3	.
CCc1ccc2occ(CC(=O)NCc3ccc4c(c3)OCO4)c2c1	-2	3.1
Cc1nn(-c2ccc(F)cc2)c(-n2cccc2)c1C(=O)NC(C)C	.	0.9

Next structures.
SMILES	CDC25B-CDK2 inh	TAR Tat displ
COc1cccc(Nc2ncnc3c2cnn3-c2ccccc2)c1	.	0.36
CC1CCCN(S(=O)(=O)c2ccc3c(c2)NC(=O)C(C)C(=O)N3)C1 (stereo not drawn)	-1.1	1.6
Cn1c(=O)c2cc(C(=O)N3CCN(C4CCCCC4)CC3)sc2c2ccccc21	-1.4	2.5
CCOC(=O)c1c(NC(=O)CSc2nc(C)nc3c2CCC3)sc2c1CCCC2	-0.79	1.1
CCSc1ccccc1C(=O)Nc1nnc2n1CCS2	.	-0.24
CC1(C)C=Cc2cc(OCC(=O)O)ccc2O1	-0.72	1.7
CCOC(=O)c1c(Nc2ccc(Br)cc2C)n[nH]c1C	-0.76	.
Cc1cccn2c(=O)c3cc(C(=O)N4CCN(C(c5ccccc5)c5ccccc5)CC4)sc3nc12	-2.4	-0.7
COc1ccc(NS(=O)(=O)c2cc3c4c(c2)CC(=O)N4CCC3)cc1OC	.	1.7
Cc1cc(-c2ccc(S(=O)(=O)Nc3ccc4c(c3)OCCO4)s2)on1	.	0.08
Cc1ccc(-n2nnc(-c3nc(-c4ccc(Cl)cc4)no3)c2C)cc1	.	1.6
O=C(NC1CCSC1=O)c1ccc(-c2ccccc2)cc1 (stereo not drawn)	-3.2	2
Cc1nn(-c2nc3ccccc3s2)c2c1C(c1cc(Cl)ccc1F)CC(=O)N2 (stereo not drawn)	.	0.51
CCOC(=O)C1=C(C)Nc2nc(SC)nn2C1c1cccc(Cl)c1 (stereo not drawn)	-1.1	2.7
CCOC(=O)c1sc(NC(C)=O)c(C#N)c1C	-0.31	2.8
COc1ccccc1OCCSc1nc(-c2cccs2)nc2cc(=O)[nH]n12	.	0.16
Cn1c(C2=C(O)CN(c3cccc(F)c3)C2=N)nc2ccccc21	-1.8	3
O=C(Nc1cc(F)ccc1F)c1ccc(Cn2nc(N3CCN(c4ccccc4)CC3)ccc2=O)o1	.	2.4
O=C(c1noc2c1COc1ccccc1-2)N1CCCC1	-1.2	0.96
Cc1cc(C)c2c(-n3cccc3)nn(CC(=O)NCc3cccs3)c2n1	.	0.89
O=C(Nc1cccs1)N1CCCC1	1.5	-1.4
FC(F)(F)C1=CC(c2cccs2)=NCCN1	-1.1	0.87
CCCC(=O)Nc1cc(F)c2nc(N3CCOCC3)ccc2c1	.	-2
CCN(C(=O)NCc1noc2ccccc12)c1cccc(Cl)c1	.	0.14
COC(=O)c1ccc(-n2ncnc2-c2cccc(Br)c2)cc1	-2.2	0.24

Going on with the list:
SMILES	CDC25B-CDK2 inh	TAR Tat displ
Cc1c(C(=O)NC2CCCC2)oc2ccc3c(c12)C(O)CC1(CCCCC1)O3 (stereo not drawn)	-1.2	1.3
Cc1c(-c2nsc(NC(=O)c3cccs3)n2)nnn1-c1ccccc1Cl	.	0.44
CCOCCCNC(=O)CCCN1C(=O)CCn2nc(C)cc21	.	0.74
CCCN1CCN(C(=O)C2CCN(c3ncnc4onc(C)c34)CC2)CC1	.	0.11
O=C(Nc1ccccc1)ON=C1CC2CCCC(C1)N2Cc1cccs1	0.3	.
COCCCNC(=O)CN(C)c1nnc(N2CCCCC2=O)s1	.	0.88
Cc1oc(-c2cccc(Br)c2)nc1CSc1nc2ncccc2[nH]1	.	1.2
Cn1c(C(=O)N2CCC(C(=O)NC3CCCC3)CC2)cc2sccc21	-1.5	1.7
COCCN1C(=O)C(O)=C(C(=O)c2cc3ccccc3o2)C1c1cccc(OC)c1 (stereo not drawn)	-1.3	1.5
CC1(C)Cc2ccccc2C(NC(=O)N2CCCCC2)=C1C#N	-2.5	0.93
CCOC(=O)N1CCN(C(=O)CSc2nnc(C3COc4ccccc4O3)o2)CC1 (stereo not drawn)	-1.9	1.8
Cn1cc(C(=O)n2ccnc2)c(=O)c2cc(S(=O)(=O)N3CCCC3)ccc21	-1.6	.
COc1ccc(NS(=O)(=O)c2cc(-c3cnc(C)o3)ccc2OC)cc1Cl	.	1
CCNC(=O)C1CCCN(c2ncnc3onc(C)c23)C1 (stereo not drawn)	.	0.73
C=CCNc1oc(COc2ccccc2C)nc1C#N	0.55	0.55
O=C(CN1C(=O)CSc2ccc(S(=O)(=O)N3CCOCC3)cc21)N1CCCC1	.	-0.23
CS(=O)(=O)N1N=C(c2ccccc2O)CC1c1cn(-c2ccccc2)nc1-c1ccccc1 (stereo not drawn)	-2.6	-0.93
CC(C)(C)C1CCC(C2(O)C(=O)Nc3ccccc32)C(=O)C1 (stereo not drawn)	-1.5	.
COc1ccc(C2CC(=O)C3=C(C2)OC(N)=C(C#N)C3c2ccc(Cl)cc2)cc1OC (stereo not drawn)	-1.8	.
CCOC(=O)c1c(NC(=O)C2Cc3ccc(C)cc3C(=O)O2)sc2c1CCC2 (stereo not drawn)	-2.6	0.05
COC(=O)c1ccc(CSc2ccc3nnc(-c4ccc(Cl)cc4)n3n2)o1	-1.2	.
O=c1cc(CO)oc(C(Nc2ccccn2)c2ccc(Cl)cc2)c1O (stereo not drawn)	-0.51	.
Cc1nc2c(c(C)c1CCC(=O)NC(C)CCc1ccco1)c(=O)n(C)c(=O)n2C (stereo not drawn)	-1.4	-0.04
COc1ccc(CCNC(=O)NC2(C(F)(F)F)Oc3ccccc3O2)cc1OC	0.27	.
CCOc1ccccc1OCc1nn2c(-c3ccc(C)cc3)nnc2s1	-0.87	1.4

Reformatted as labelled records: part of the list above.
CCNC(=O)C1CCCN(c2ncnc3onc(C)c23)C1 (stereo not drawn)
  CDC25B-CDK2 inh: .
  TAR Tat displ: 0.73
C=CCNc1oc(COc2ccccc2C)nc1C#N
  CDC25B-CDK2 inh: 0.55
  TAR Tat displ: 0.55
O=C(CN1C(=O)CSc2ccc(S(=O)(=O)N3CCOCC3)cc21)N1CCCC1
  CDC25B-CDK2 inh: .
  TAR Tat displ: -0.23

Among those listed so far, four have a CF3 group:
SMILES	CDC25B-CDK2 inh	TAR Tat displ
Cc1cc(NCc2cccnc2)n2nc(C(F)(F)F)c(-c3ccc(F)cc3)c2n1	-0.49	-0.13
CCOC(=O)c1cnc(-c2cccs2)nc1Nc1cccc(C(F)(F)F)c1	-2.1	.
FC(F)(F)C1=CC(c2cccs2)=NCCN1	-1.1	0.87
COc1ccc(CCNC(=O)NC2(C(F)(F)F)Oc3ccccc3O2)cc1OC	0.27	.

Remaining list, next part:
SMILES	CDC25B-CDK2 inh	TAR Tat displ
O=S(=O)(c1cnc[nH]1)N1CCCC1c1ccccc1Cl (stereo not drawn)	-2.8	0.31
O=S(=O)(Oc1cccc(C(F)(F)F)c1)c1cc(S(=O)(=O)c2ccccc2)cs1	-0.07	.
CCN(Cc1cc2cc3c(cc2[nH]c1=O)OCCO3)c1ccc2c(c1)OCCO2	1.1	-1.4
Cc1cc(C)n(C(=O)CSc2nc(-c3ccccc3)cc(C(F)(F)F)c2C#N)n1	-1.3	1
CN1CCC(N(C)C(=O)Cc2csc3nc(-c4ccc(F)cc4)cn23)CC1	.	-1.5
COc1cccc(OCc2cc(=O)n3ccsc3n2)c1	0	0.52
O=C(c1ccc(-n2ccc3ccccc32)s1)N1CCC(C(=O)N2CCCC2)CC1	.	0.51
CCc1nc(SCC(=O)Nc2nnc(CC)s2)c2c(=O)n(C)c(=O)n(C)c2n1	.	-0.26
N[C@@H](CS(=O)O)C(=O)O	-2	.
NC(=O)Cn1c(=O)n(Cc2nc(-c3ccccc3)no2)c(=O)c2ccccc21	.	0.12
CCCCSc1nc2n(n1)C(c1cccs1)C1=C(CCCC1=O)N2 (stereo not drawn)	-0.23	-1.2
COC(=O)c1ccccc1N=CNO	-2.7	.
CCc1nc2c(cnn2-c2ccc(C)cc2)c(=O)n1-c1ccc2c(c1)OCCO2	.	-0.43
O=C(Cn1cc(S(=O)(=O)c2ccc(F)cc2)c(=O)c2cc3c(cc21)OCO3)Nc1ccc(F)cc1	-1.3	0.93
CCCC1N=C2c3ccccc3N=C(SCC(=O)NC(C)C)N2C1=O (stereo not drawn)	.	0.31
CCN1CCN(CCNC(=O)C2CCCN(c3nnc(-n4cccc4)s3)C2)CC1 (stereo not drawn)	.	1.4
O=S1(=O)C[C@H](NCCCc2ccccc2)[C@@H](S(=O)(=O)c2ccccc2)C1	-1.6	-0.69
O=C1CCC(C(=O)O)C(Cc2ccccc2)C1 (stereo not drawn)	-1.2	0.72
